Bioassay records (PubChem)
VACV E9 pol inh = blocks vaccinia virus processive DNA synthesis. in vitro processive DNA synthesis, absorbance read-out; stronger effect = lower value; some inactives read as strong as hits. normalized absorbance, % (test concentration not listed). actives 0.94% (n = 46,000). AID 493162;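 active = replicate mean up to 90% and picked by the depositor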;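 note: 100% = median of the test wells of a plate; 100 nL library stock went into each well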
* hit, by the source's call; ! = not active in a repeat. These rows are one share of the data; count on the stated rates, not on these rows.

SMILES	VACV E9 pol inh
COc1ccccc1C(=O)C1C(=O)NC2(C)CC1c1cc(Cl)ccc1O2 (centres undefined)	98
CCn1cc(CCCC(=O)NCCc2ccc(Cl)cc2)c2ccccc21	105
CCNC(=O)c1ccc(Cl)s1	100
N#Cc1c(NC(=O)COC(=O)c2ccc(F)cc2)sc2c1CCC2	99
COc1ccc(-n2nc3c(c2NC(=O)CCc2ccccc2)CSC3)cc1	101
CCN1C(=O)/C(=C\c2ccc(NC(=O)c3ccccc3Br)cc2)SC1=S	87
CCCc1cc(=O)c2c(=O)n(-c3ccccc3)[nH]c2[nH]1	99
C[n+]1cc(C(=O)NCC[N+](C)(C)Cc2ccccc2)ccc1/C=N/O	100
COc1ccc(Cc2nc(-c3ccccc3)n[nH]c2=S)cc1	99
OC(c1ccccc1)c1ccccn1 (centres undefined)	99
CC1C=Cc2ccccc2N1C(=O)c1ccccc1 (centres undefined)	96
COC(=O)c1cc(=O)n(-c2ccccc2)c(=Nc2ccccc2)s1	103
O=C(Cn1cnc2ccccc2c1=O)c1ccc(Cl)cc1	94
CCN1C(=O)/C(=C\c2ccc(N(C)C)cc2Cl)OC1=S	100
O=C(O)c1ccc(CNC(=O)c2cocc2C(=O)O)o1	100
NC(N)=NC(=O)c1nc(Cl)c(N)nc1N	63*!
Cc1ccc(S(=O)(=O)Nc2ccc(C(=O)NCCN(C)C)cc2)cc1	86
Cc1ccc(N(C(=O)COc2ccccc2)C2C=CS(=O)(=O)C2)cc1 (centres undefined)	87
COC(=O)c1ccc(C(=O)Nc2ccc3nc(C4CCCCC4)[nH]c3c2)cc1	100
Fc1cccc(/C=N/n2cnnc2)c1	109
COC(=O)c1ccc(OCc2c(C)noc2C)cc1	100
ClC1=C(Cl)C2(Cl)C3C4CC(C5OC45)C3C1(Cl)C2(Cl)Cl (centres undefined)	99
Cc1ccc(-c2nnc(Nc3ccccc3)c3ccccc23)cc1S(=O)(=O)NCc1ccccn1	93
CN(C)CCNc1cnn(-c2ccccc2)c(=O)c1Cl	100
CN1C2CCC1CC(OC(=O)C(CO)c1ccccc1)C2 (centres undefined)	99
CCC(Sc1nc2ccccc2n1CC)C(=O)O (centres undefined)	105
Cn1cc(SCC(=O)NCc2ccco2)c2ccccc21	100
O=C1CCN(S(=O)(=O)c2cccs2)CCN1	101
COC(=O)c1c(C)[nH]c(C(=O)CSc2nnc3cc(C)c4ccccc4n23)c1C	99
CC1=CC(=O)C(C(=O)/C=C/c2ccc(Cl)cc2)C(=O)O1 (centres undefined)	103
c1ccc(-c2ncc(-c3ccn[nH]3)s2)cc1	98
OC(COc1ccc(Nc2ccccc2)cc1)COc1ccc(Nc2ccccc2)cc1	101
Cc1ccc(Cl)cc1NC(=O)N1CCC(CN2CCOCC2)CC1	109
COC(=O)/C=C1/OC(c2ccccc2)=CC1=O	83
O=c1cc(O)c2sc(Nc3ccccc3)nc2[nH]1	99
CCOC(=O)c1c(N)cc2[nH]c(=S)[nH]c(=O)c2c1-c1ccccc1	99
O=c1cc(-c2cc(Cl)cc3c2OCOC3)oc2ccc(F)cc12	102
O=C(NCCN1CCC(Cc2ccccc2)CC1)c1ccc(-c2ccccc2)s1	99
CCN(C(C)=O)c1ccccc1C	99
O=C(O)/C=C/C(=O)N1CCC(Cc2ccccc2)CC1	99
CCOc1cc(/C=C2/SC(=NC)N(C)C2=O)ccc1OCC(N)=O	99
C=C(C)[C@H]1O[C@H]2CC[C@@]3(C)[C@@](O)(CC[C@H]4[C@@H]5OC(C)(C)[C@H]6C[C@@H]7C(=C)Cc8c(Cl)cc9[nH]c(c5c9c8[C@@]76O)[C@@]43C)[C@]23O[C@@H]3[C@H]1O	100
CC1CCCC(NC(=O)C2c3ccccc3C(=O)N2CCc2ccccc2)C1C (centres undefined)	106
CCc1cc(C(=O)OC)c(N2C(=O)C=CC2=O)s1	79
CS(=O)(=O)c1ccc2nc(NC(=O)c3ccccc3Br)sc2c1	106
Cc1[nH]c(=O)[nH]c(=O)c1S(=O)(=O)N1c2ccccc2CC1C (centres undefined)	95
Cc1ccc(C)c(NC(=O)c2ccco2)c1	103
COc1cccc(Nc2nc(=O)[nH]nc2C)c1	101

Quoted from the results shown (2 entries):
SMILES	VACV E9 pol inh
O=c1cc(-c2cc(Cl)cc3c2OCOC3)oc2ccc(F)cc12	102
O=C(NCCN1CCC(Cc2ccccc2)CC1)c1ccc(-c2ccccc2)s1	99

Ordered by SMILES length (rising): part of the list above
SMILES	VACV E9 pol inh
COc1cccc(Nc2nc(=O)[nH]nc2C)c1	101
CCc1cc(C(=O)OC)c(N2C(=O)C=CC2=O)s1	79
CC1CCCC(NC(=O)C2c3ccccc3C(=O)N2CCc2ccccc2)C1C (centres undefined)	106

(listing goes on)
SMILES	VACV E9 pol inh
CC1=NN(c2ccccc2)C(=O)C1=C(C)C	100
CCN1CCN(CC(O)COc2ccc(C3CCCCC3)cc2)CC1 (centres undefined)	98
Cc1cc(C)nc(SCC(=O)CSc2nc(C)cc(C)n2)n1	80
CC(=O)Nc1ccc(Oc2cncc(Cl)c2)nc1	110
CC12CC3CC(C)(C1)CC(C(=O)NN)(C3)C2	89
COC(CNC(=O)c1ccc2c(c1)ncn2-c1ccc(F)cc1F)OC	100
CC1(C)COP(=S)(C(Nc2ccc(Cl)cc2)c2ccc(O)cc2)OC1 (centres undefined)	100
COc1ccc(-c2nc(SCC(N)=O)c3c(=O)n(C)c(=O)n(C)c3n2)cc1	100
O=C(CSc1ncccc1C(=O)NCc1cccnc1)Nc1cccc(C(F)(F)F)c1	100
CC1=Nc2ccccc2NC(=O)C1Sc1nc2ccccc2s1 (centres undefined)	100
O=C(Oc1ccc(C2SCCS2)cc1)c1cccc(C(F)(F)F)c1	100
C=C(C)C(=O)Nc1ccc(O)c(-c2nc3ccccc3[nH]2)c1	98
CCOc1ccc(NC(=O)C(C)C(Cc2ccc(C)cc2)C(=O)O)cc1 (centres undefined)	100
CN(Cc1ccccc1)C(=O)C1CCCN1S(=O)(=O)c1ccc2c(c1)n(C)c(=O)c(=O)n2C (centres undefined)	91
CCCCc1c(C)c(C#N)c2[nH]c3ccccc3n2c1=O	99
NC(=O)CNc1ncc(C(F)(F)F)cc1Cl	127
N#C/C(=C(/O)C(F)(F)F)c1nnc2n1CCCCC2	106
CN(Cc1ccccc1)S(=O)(=O)c1cc(Br)cnc1N	100
CC(=O)Nc1sc2c(c1C#N)CCC2	102
c1ccc2nc(SCc3cn4ccccc4n3)cnc2c1	99
Cc1ccc2c(c1)N(C(C)C(=O)NCc1ccccn1)C(=O)CO2 (centres undefined)	95
CCn1c(C(C)NC(=O)C(C)(C)C)nc2ccccc21 (centres undefined)	102
O=C(c1cc2ccccc2oc1=O)N(Cc1ccccc1)Cc1ccccc1	99
Cc1cc(S(=O)(=O)N2CCSCC2)cc(C)c1F	100
O=C(CCC(=O)c1cccs1)Nc1ccc(F)c(F)c1F	102
Cc1ccc(N=C2NC(=O)CC(C(=O)Nc3cccc4ccccc34)S2)cc1 (centres undefined)	105
Cc1cc(C)nc(Nc2ccc(S(=O)(=O)Nc3ccccn3)cc2)n1	92
CC(=O)N1C(C(=O)O)CSC1c1ccc(C)cc1 (centres undefined)	87
COC(=O)C1SCCN1S(=O)(=O)c1ccc(-c2cc(C(F)(F)F)on2)s1 (centres undefined)	101
COc1cc(C)c(C)cc1S(=O)(=O)NC1CCCCCC1	74
COc1ncnc2c1cnn2-c1ccccc1	100
COc1ccc(-c2cc3ccccn3c2C)cc1	98
CCCCC(C)(C)[C@H](O)/C=C/[C@H]1[C@H](O)CC(=O)[C@@H]1C/C=C\CCCC(=O)O	100
O=C(CSc1nc2c(c(=O)n1-c1ccc(Cl)cc1)SCC2)NCCc1ccccc1	100
Clc1ccc(SCCc2nc3ccccc3o2)cc1	100
CO[C@H]1C[C@H](O[C@H]2[C@H](C)[C@@H](OC3O[C@H](C)C[C@H](N(C)C)[C@H]3O)[C@@H](C)C[C@]3(CO3)C(=O)[C@H](C)[C@@H](O)[C@@H](C)[C@@H](C)OC(=O)[C@@H]2C)O[C@@H](C)[C@@H]1O (some centres undefined)	93
CCOc1ccc(S(=O)(=O)Nc2cccc(-c3cn4cccc(C)c4n3)c2)cc1	101
CC[C@H](C)C(=O)O[C@H]1C[C@@H](C)C=C2C=C[C@H](C)[C@H](CC[C@@H]3CCCC(=O)O3)[C@H]21	99
Cc1ccc(S(=O)CCOc2ccc(Cl)cc2Cl)cc1 (centres undefined)	98
CCOc1ccccc1OCCCC(=O)O	100
COC(=O)CCC(=O)c1cc2cc(Br)ccc2o1	100
CCOC(=O)c1ccc(NC(=O)NC2OC(CO)C(O)C(O)C2O)cc1 (centres undefined)	96
OC(COCCC12CC3CC(CC(C3)C1)C2)CN1CCCCC1 (centres undefined)	99
O=C(O)/C=C/c1ccc2c(-c3ccccc3)onc2c1	91
CCN(C(=O)CSc1ncccn1)c1ccccc1	82
O=C(CCCc1ccccc1)c1ccc2c(c1)OCCO2	105
O=C(Cc1ccc(Cl)cc1)Nc1ccccn1	100
O=C(CCSc1ccc(Cl)cc1)Nc1ccc(F)c(F)c1F	102
S=C(NCc1ccccc1)c1ccccn1	99
Cc1cc(NCc2ccccc2)n2ncnc2n1	104
O=C(O)C1CCCN1C(=O)C12CC3CCC(CC(C3)C1)C2 (centres undefined)	89
O=C(O)C1(C2CCC3OCOC3C2)SCCCS1 (centres undefined)	100
COc1ccccc1-n1c(C23CC4CC(CC(C4)C2)C3)n[nH]c1=S	101
CC1(C)CN(c2cccc(C#N)c2)C1=O	103
CC1C(c2ccccc2)N(C)C(c2ccccc2)CC1(O)c1ccc(F)cc1 (centres undefined)	108
Cc1ccccc1OCC(=O)NC1CCCCC1NC(=O)COc1ccccc1C (centres undefined)	100
CN1CCN(CCNC(=O)c2cc3c(=O)n(C)c4ccccc4c3n2C)CC1	62*
CCOC(=S)SCc1c(C)c(C)c(C)c(C)c1C	110
CC(C)(C)c1ccc(-c2nnc(SCc3cccc(C(N)=O)c3)n2-c2ccc3c(c2)OCO3)cc1	108
Cc1ccc(-c2nnc(Nc3ccccc3)c3ccccc23)cc1S(=O)(=O)N1CCCCC1	100

The results go on:
SMILES	VACV E9 pol inh
C=CCn1c(=O)sc2cc(NC(C)=O)ccc21	100
COc1ccc(CC(=O)NC(C)C(c2cccs2)N2CCN(C)CC2)cc1OC (centres undefined)	100
CC1=CC2(CCC(C)CC2C(=O)NCc2ccc(Cl)cc2)OC1=O (centres undefined)	102
Cc1ccc(Cl)cc1NC(=O)CC(C(=O)O)N1CCNCC1 (centres undefined)	89
CCC1CCc2[nH]c(=S)c(C#N)c(C(F)(F)F)c2C1 (centres undefined)	90
CCc1ccc(NC(=S)N(CCN2CCOCC2)Cc2ccccc2F)cc1	103
COc1ccc(C(=O)NC(C)c2nc3ccccc3[nH]2)cc1OC (centres undefined)	101
Cc1ccc(N2C(=O)c3ccc(C(=O)N(CCO)c4ccccc4)cc3C2=O)cc1C	98
O=C(CSc1oc(-c2cccs2)nc1S(=O)(=O)c1ccccc1)c1ccccc1	96
CCN(CC)C(=O)CSc1cc(=O)n(C)c2cc(Cl)ccc12	101
COc1cc(OC)cc(C(=O)N2CCN=C2c2ccccc2)c1	100
COc1ccccc1C1CC(=O)NC(C)=C1C(=O)OC1CCCC1 (centres undefined)	105

Of the compounds above, these have a cyano group.
SMILES	VACV E9 pol inh
N#Cc1c(NC(=O)COC(=O)c2ccc(F)cc2)sc2c1CCC2	99
CCCCc1c(C)c(C#N)c2[nH]c3ccccc3n2c1=O	99
N#C/C(=C(/O)C(F)(F)F)c1nnc2n1CCCCC2	106
CC(=O)Nc1sc2c(c1C#N)CCC2	102
CC1(C)CN(c2cccc(C#N)c2)C1=O	103
CCC1CCc2[nH]c(=S)c(C#N)c(C(F)(F)F)c2C1 (centres undefined)	90

Remaining list, next part.
SMILES	VACV E9 pol inh
Cc1nc2ccc3nc(NC(=O)c4ccccc4C)sc3c2s1	101
CC(/C=C/c1ccccc1)=N\n1c(C)cc(C)c(C#N)c1=O	100
COc1ccc(S(=O)(=O)N(C(=O)C2CCCCC2)c2ccc3oc(=O)sc3c2)cc1OC	84
CN1C(=O)c2ccccc2C(C(=O)NCc2ccc(F)cc2)C1c1c[nH]c2ccccc12 (centres undefined)	100
N#Cc1c(NC(=O)/C=C/c2cccs2)sc2c1CCCC2	101
Cc1ccc(N(C(=O)c2cc3ccccc3oc2=O)C2C=CS(=O)(=O)C2)cc1 (centres undefined)	98
O=C(Nc1cc(Cl)cc(Cl)c1)N1CCC(n2cccc2)CC1	101
NNC(=S)NC1CCCCCCCCCCC1	103
Cc1cc(=O)[nH]c(SCC(=O)Nc2cccc3ccccc23)c1C#N	90
CCC(C(=O)NCc1cc(Br)ccc1OC)n1nc(C)n2c(cc3occc32)c1=O (centres undefined)	93
CCCn1c(CCCNC(=O)CC)nc2ccccc21	89
O=C(COC(=O)c1cccc(NC(=O)c2ccc(Cl)cc2)c1)c1ccccc1	105
CC(C)Cc1cc2c(c(N)n1)c(=O)oc1ccccc12	98
Nc1ccc(C(=O)N2CCOCC2)cc1	101
Cc1ccnc(NC(=O)C(C)(C)Oc2ccc(Cl)cc2)n1	87
Cc1cc(C)c2oc(-c3ccc(NC(=O)COc4ccc(Br)cc4)cc3O)nc2c1	100
CC(C)(c1ccccc1)c1ccc(O)cc1	101
CN(CC(=O)N1CCCC1)c1nnc(N2CCCC2=O)s1	100
O=C(Nc1ccccn1)C12CCC(CC1)C2	99
O=C(CSc1nccn1-c1ccccc1)N1CCc2ccccc21	97
O=C1C2=C(CCCC2)C(=O)N1CNc1ccccc1	102
CNC(=O)C(C)n1nc(C)c2sc3ccccc3c2c1=O (centres undefined)	102
